RVFV N-RNA FP – RVFV nucleocapsid-RNA interaction inhibition. P21700. RVFV N-RNA binding, fluorescence polarization; hits give low values. % bound, % (test concentration not listed). 0.1% of 20,000 active. AID 651828;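 active = between 0 and 58% in either replicate with normal brightness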;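 note: 100 nL library stock added to about 12 µL; 100% = protein and probe without compound and 0% = probe alone; numbers are from one replicate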
Target sequence (P21700 whole entry, looked up): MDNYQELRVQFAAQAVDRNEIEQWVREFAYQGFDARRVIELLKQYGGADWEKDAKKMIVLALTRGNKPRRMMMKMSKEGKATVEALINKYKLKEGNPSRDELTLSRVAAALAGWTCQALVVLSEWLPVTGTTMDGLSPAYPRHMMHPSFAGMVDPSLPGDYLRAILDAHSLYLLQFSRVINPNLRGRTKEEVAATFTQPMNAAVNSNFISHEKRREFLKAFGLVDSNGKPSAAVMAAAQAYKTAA
Starred values were filed as active, the others as inactive; & = joins results of further samples. This is a subset, so the mix of outcomes need not match the whole.

SMILES	RVFV N-RNA FP
O=c1[nH]c(C(F)(F)F)nc2ccccc12	102.2
CSCc1nnc(NC(=O)c2ccc(S(=O)(=O)N3CCCC3)cc2)o1	97.8
O=c1[nH]c2ccccc2n2nnnc12	97.7
CCN(CC)c1ccc(NC(C)=O)c(C)c1	92.4
CCC(NC(=O)NCc1cccnc1)(C(F)(F)F)C(F)(F)F	94.4
CNS(=O)(=O)c1ccc(NC(=S)Nc2ccc3c(c2)OCO3)cc1	92.1
c1ccc(-c2[nH]ncc2-c2ccnc3ccccc23)nc1	94.8
Cc1ccc(N2CC(C(=O)N(Cc3ccccc3)c3ccccn3)CC2=O)cc1 (configuration not stated)	95.9
CN(C)c1ccc(/C=C(\C#N)S(=O)(=O)C(C)(C)C)c(F)c1C#N	93.3
Cc1ccc(NC(=O)CC(NC2CCCCC2)C(=O)O)cc1Cl (configuration not stated)	96.8
CCN1C(=O)/C(=C/c2ccc(F)cc2)NC1=S	103.8
NNC(=O)C1CC1c1ccccc1 (configuration not stated)	95.0
c1ccc2c(c1)OC1c3ccccc3OC3c4ccccc4OC2N31 (configuration not stated)	94.1
CC(C)=CC1C(C(=O)NCCOc2ccccc2)C1(C)C (configuration not stated)	98.3
COc1ccc2c(c1)CCc1c-2nc2ccccc2c1N1CCOCC1	100.6
CCOC(=O)CC1C(=O)NCCN1C(=O)Nc1ccccc1 (configuration not stated)	99.4
O=C(NC1CCCCC1)c1ccc(Cl)cc1	97.7
C=CCNc1nc(OC)nc(OC)n1	98.7
O=C(O)CCCn1cc(NC(=O)c2cccs2)cn1	94.6
CCOC(=O)c1ccc(N=C2S/C(=C\c3cc4c(cc3OC)OCO4)C(=O)N2C)cc1	92.8
CCOC(=O)c1cc(-c2csc(-c3ccc(Cl)cc3)n2)on1	92.1
CC1CN(CCOc2ccccc2)CC(C)O1 (configuration not stated)	109.8
Cc1ccc(CS(=O)(=O)c2ccc(C(F)(F)F)cn2)cc1	91.2
CO/N=C1\CC(C)(C)Cc2c(-c3ccn(C(C)=O)n3)sc(SC)c21	82.9
COc1ccc(C(=O)CSc2nc(=O)n3cc(C)ccc3n2)cc1	101.4

New compounds follow:
SMILES	RVFV N-RNA FP
CCOC(=O)C(CC)Sc1ccc2nnc(CCNC(=O)c3ccc(F)cc3)n2n1 (configuration not stated)	93.8
Cc1ccc(S(=O)(=O)N2C(=O)CCC2c2nc(-c3cccnc3)no2)cc1 (configuration not stated)	95.1
Ic1cccc(-c2nc(-c3ccccc3)no2)c1	95.0
O=C(O)c1cc([N+](=O)[O-])ccc1NCCCc1ccccc1	98.4
Cc1ccc(S(=O)(=O)CCN2C=CC(C(F)(F)F)=NCC2)cc1	98.6
CC(C)CC(=O)Nc1cc2nn(-c3ccccc3)nc2cc1Cl	111.0
Cc1cccn(Cc2c(Cl)cccc2Cl)c1=O	91.0
Cc1cccc(C(=O)NC2CCCCC2C)c1 (configuration not stated)	89.6
Cc1onc(-c2ccccc2)c1C(=O)N[C@@H]1C(=O)N2[C@@H]1SC(C)(C)[C@@H]2C(=O)O	93.8
Cn1c(/N=C/c2c(O)ccc3ccccc23)nc2ccc(Br)cc21	98.2
CC(C)(C)C(=O)/C=C(/N)c1ccncc1	102.9
COC(=O)CSc1ccc2nnc(-c3cccnc3)n2n1	84.4
CCOC(=O)C1CCCN(C(=O)Nc2ccccc2)C1 (configuration not stated)	90.1
COc1cc([C@@H]2c3cc4c(cc3[C@H](O)C3COC(=O)[C@@H]32)OCO4)cc(OC)c1OC (some centres not stated)	92.4
CN1[C@@H]2CC[C@H]1CC(OC(=O)C(CO)c1ccccc1)C2 (some centres not stated)	105.5&98.5
COC(=O)CN(C)S(=O)(=O)c1ccc(Br)cc1	96.7
O=C1c2ccccc2C(=O)N1CCc1ccccc1	91.3
COc1ccc(C(=O)NCCc2cn3ccccc3n2)cc1	94.1
NCCCNc1ccc(C(F)(F)F)cn1	83.8
S=C(Nc1ccccc1)N1CCn2cccc2C1c1cccnc1 (configuration not stated)	95.5
COc1ccc(CN=Cc2c(O)[nH]c3ccccc23)cc1OC	96.5
CC(=O)Oc1ccccc1C(=O)Oc1ccc(/C=N\n2cnnc2)cc1	100.6
CCOC(=O)c1c(-c2ccc(C)o2)csc1NC(=S)NC(=O)N(C)C	95.0
CC(C)C(NC(=O)c1ccccc1)c1nnc(SCC(=O)Nc2nccs2)n1C (configuration not stated)	99.8
CCC(=O)Nc1ccc(NC(=O)CC)cc1	93.8

More compounds:
SMILES	RVFV N-RNA FP
c1ccc2c(c1)ncn2CC1CCCCC1	91.7
COC(=O)Cn1c(=NC(=O)C2CC2)sc2c(C)cc(C)cc21	96.9
CC1=NN(CCC#N)C(=O)/C1=C\c1ccc(N)cc1	106.1
CCCN1CCC(NC(=S)Nc2ccc(C(=O)OCC)cc2)CC1	100.3
CC1=C(C(N)=O)C(c2ccccc2Cl)N2C(=O)CSC2=N1 (configuration not stated)	95.0
N#Cc1cc2c(nc1SCc1ccncc1)CCC2	102.1
Nc1nc2n(n1)C(c1ccco1)CC(c1ccc(F)cc1)N2 (configuration not stated)	97.2
N#C/C(=C/c1ccc(Sc2ccccc2)o1)c1cccc(F)c1	98.8
CSc1nnc(C2CCCN2C(=O)OC(C)(C)C)o1 (configuration not stated)	95.7
CCc1c(C)c(C#N)c2nc3ccccc3n2c1NCC(C)C	103.5
CC1CCN(C(=O)Cn2cc(SCC(=O)NC(C)(C)C)c3ccccc32)CC1	95.1
NC(=O)CSc1cn(Cc2ccc(F)cc2)c2ccccc12	79.7
COc1ccc(Cc2nnc(SC)[nH]c2=O)cc1	104.3
Cc1ccccc1Cn1ccc(NC(=O)c2cc3ncc(Br)cn3n2)n1	97.3
Cc1ccc(C(=O)n2nc(-c3cccnc3)nc2N)cc1	101.4
On1c(-c2ccccc2)cc2ccccc21	94.0
C/C(=N\OCc1ccc(C(=O)N2CCOCC2)o1)c1ccc(Cl)cc1Cl	97.1
COc1ccc(S(=O)(=O)c2cnc3cc(OC)c(OC)cc3c2N2CCC(C)CC2)cc1	94.8
OCCCCC1OC2CCCCC2C2=CCCCC21 (configuration not stated)	103.6
CCn1c(O)c(C=NC2CCCCCC2)c(=O)[nH]c1=S	96.7
Cc1cc2c(ccc3nonc32)nn1	102.3
NC(=O)COc1cc2oc(=O)c3c(c2cc1Cl)CCCC3	106.9
CNC(=O)Nc1ccc(Oc2cncc(Cl)c2)nc1	92.9
N#CC1=C(N)SC(N)=C(C#N)C1	98.1
Cc1nn(-c2ccccc2)c2nc3ccccc3c(N3CCOCC3)c12	99.7

Reformatted field by field: two of the compounds above
Cc1cc2c(ccc3nonc32)nn1
  RVFV N-RNA FP: 102.3

NC(=O)COc1cc2oc(=O)c3c(c2cc1Cl)CCCC3
  RVFV N-RNA FP: 106.9

Additional entries:
SMILES	RVFV N-RNA FP
CCN(CC)C/C=C/c1c(F)c(F)c(NCCOC)c(F)c1F	87.2
Cc1ccccc1N1C(=O)NC(=O)C(CCc2ccncc2)(Cc2ccc3c(c2)OCO3)C1=O (configuration not stated)	97.2
COc1cccc2cc(C(=O)C3=C(O)C(=O)N(CCCn4ccnc4)C3c3ccc(F)cc3)oc12 (configuration not stated)	102.8
CCOc1cccc(C(=O)NN2CCOCC2)c1	96.5
COc1ccc(CCNC(=O)CSc2nc(C)c(C)c(=O)[nH]2)cc1OC	97.8
Cc1ccc(/C=C/C(=O)NCc2ccncc2)cc1	90.1
O=C(NCc1n[nH]c(=O)c2ccccc12)C1CC(=O)N(c2ccccc2)C1 (configuration not stated)	92.7
O=C(OCc1ccc(Cl)cc1)c1cnc(N2CCCCC2)nc1C(F)(F)F	94.7
COc1ccc(OCC(=O)Nc2ccc(CN3CCOCC3)cc2)cc1	87.6
COc1ccc(-c2cc(=O)c3c(O)c(OC)c(OC)cc3o2)cc1O	98.5
CC1(C)CC(=O)c2sc(NC(=O)c3ccc(S(C)(=O)=O)cc3)nc2C1	94.4
CN(C)C(=O)c1ccccc1-c1ccccc1C(=O)O	96.1
Clc1ccc(-n2ncc3c(Cl)ncnc32)cc1	90.2
COc1ccc2c(C)nc(NC3=NCC(=O)N3)nc2c1	87.6
CCN(Cc1ccccc1)Cc1cccnc1	108.4
CCCCC#Cc1nc(NC)c2ncn([C@@H]3O[C@H](CO)C(O)[C@@H]3O)c2n1 (some centres not stated)	90.4
CCOC(OCC)P(=O)(C(C)C)C(C)C	88.7
COC(=O)/C(=C/c1ccc2c(c1)OCO2)NC(=O)c1ccco1	95.8
N#CCCC1CCCCCCCCCCC1=O (configuration not stated)	93.7
O=C(CSc1ncccn1)N1CCCC1	96.8
O=c1nc(SCCc2ccccc2)nc2ccccn12	101.5
C#CCOc1c(Br)cc(/C=N/O)cc1OCC	87.6
Cn1ncc2c(NNS(=O)(=O)c3ccccc3)ncnc21	82.1
N#CC1=Cc2ccccc2C2NN3C(C#N)=Cc4ccccc4C3NN12 (configuration not stated)	100.9
CC(=O)Oc1ccccc1C(=O)NCCC1=CCCCC1	103.2

Further compounds
SMILES	RVFV N-RNA FP
COCCn1ccc2c(OCC(=O)NCc3ccco3)cccc2c1=O	106.6
NCCCCCC(=O)O	108.0
O=C(c1ccc(Cl)cc1)N1CCOCC1	91.9
Cc1c(NC(=O)NCc2ccccc2)n(C)c(=O)n1-c1ccccc1	98.9
Cc1ccccc1NC(=O)N(Cc1ccco1)C(=O)CC#N	95.1
CN(C(=O)C1CCCCC1C(=O)O)c1ccccc1 (configuration not stated)	94.9
Fc1ccccc1-c1nc(-c2cccc(C(F)(F)F)c2)no1	94.4
CC1CCC(NC(=O)c2cncc(Br)c2)CC1 (configuration not stated)	93.2
CC(Oc1ccc(Cl)cc1Cl)C(=O)Nc1ccc2oc(-c3ccncc3)nc2c1 (configuration not stated)	97.8
COC(=O)COc1ccccc1OC	89.4
Cc1ccc(CSc2nnc(CCC(=O)O)c(=O)n2N)cc1	96.7
CNC(=O)Nc1ccc2nc(C)oc2c1	100.2
c1ccc(-c2noc(-c3cccs3)n2)cc1	99.2
CCOC(=O)Cc1csc(NC(=O)CSc2nc(=O)cc(N)n2-c2cccc(C)c2)n1	95.2
CC(C)(C)c1ccc(-c2noc(CSc3n[nH]c(=O)n3Cc3ccco3)n2)cc1	90.4
CCN1CCN(S(=O)(=O)c2ccccc2)CC1	91.4
CSc1n[nH]c(N)c1-c1ccccn1	93.7
COC(=O)c1ccc(Oc2ccc(C(=O)OC)cc2)cc1	99.3
CCCN1CCC(NC2CCN(Cc3ccccc3)CC2)CC1	90.4
CC(C(=O)O)c1ccc2c(c1)Cc1cccnc1O2 (configuration not stated)	91.9
C(=N\NC1=NCCN1Cc1ccccc1)/c1ccc2c(c1)OCO2	98.1
N#Cc1ccccc1COc1ccc(CO)cc1	100.7
CC1C(=O)N(C)C(=O)c2nc[nH]c21 (configuration not stated)	94.7
COC(=O)/C=C/S(=O)(=O)c1ccc(Br)cc1	96.3
O[C@H]1C2C3CC4C5C3C1C5C1(OCCO1)C42 (some centres not stated)	93.4

A second format for some results above.
Cc1cccc(C(=O)NC2CCCCC2C)c1 (configuration not stated)
  RVFV N-RNA FP = 89.6
Cc1onc(-c2ccccc2)c1C(=O)N[C@@H]1C(=O)N2[C@@H]1SC(C)(C)[C@@H]2C(=O)O
  RVFV N-RNA FP = 93.8
Cn1c(/N=C/c2c(O)ccc3ccccc23)nc2ccc(Br)cc21
  RVFV N-RNA FP = 98.2
CC(C)(C)C(=O)/C=C(/N)c1ccncc1
  RVFV N-RNA FP = 102.9

(more compounds)
SMILES	RVFV N-RNA FP
N#CCCN(CCc1ccccn1)C(=O)Nc1ccccc1	101.1
CN(C)S(=O)(=O)c1ccc2c3c(cccc13)C(=O)N2C(=O)c1ccco1	99.7
O=C(O)CCCC(=O)Nc1ccc(Oc2ncnc3cc(Cl)ccc23)nc1	96.3
COc1cc(CN2CCCN(C)CC2)cc(OC)c1OC	98.6
CN(Cc1ccccc1)S(=O)(=O)Cc1ccccc1	97.4
CCc1nn(CCCN2CCN(c3cccc(Cl)c3)CC2)c(=O)n1CCOc1ccccc1	94.1&91.4&96.8
CCOC1C(OCC)N(S(=O)(=O)c2ccc(C)cc2)CCN1S(=O)(=O)c1ccc(C)cc1 (configuration not stated)	102.6
CC1CCc2cc(F)ccc2N1C(=O)c1cc2ccccc2oc1=O (configuration not stated)	93.8
Cc1cccc(Cn2nc(-c3ccc4c(c3)OCO4)ccc2=O)c1	89.4
Fc1ccc(OCCc2nc(-c3ccc(C4SCCS4)cc3)no2)cc1	88.7
CCOC(=O)c1ccc(NN)cc1	89.9
CC(=O)N(CCCCN1C(=O)c2ccccc2C1=O)c1ccc(C)cc1	97.7
O=C(c1ccc2nccnc2c1)N1CCCc2ccccc21	90.9
COc1ccc(OC)c(NC(=S)NCCc2cnc[nH]2)c1	95.6
CCCN(CC1CC1)C(=S)Nc1ccccc1OC	91.9
CC(C)(C)c1ccc(-c2noc(C(=O)NN)n2)cc1	97.2
OC(C#Cc1ccccc1)c1cccs1 (configuration not stated)	91.3
OC1COC(Oc2ccccc2)C(O)C1O (configuration not stated)	94.5
c1cc2nc3c(nc2c2nonc12)CCCC3	93.6
COc1ccccc1C1OC(=O)C[C@@H]1C(=O)Nc1nncs1 (some centres not stated)	95.1
CCN(CCO)C1CC(=O)N(c2ccccc2C)C1=O (configuration not stated)	98.2
COC(=O)Nc1cccc(NC(=O)OC)c1F	95.6
Cn1nc(-c2ccc(S(=O)(=O)NCc3ccco3)s2)cc1C(F)(F)F	103.3

High-throughput results as filed in PubChem.
